# Screens from PubChem BioAssay.
# Cruzain noTriton – inhibitors of Trypanosoma cruzi cruzain without detergent | P25779 | purified cruzain, Z-FR-AMC fluorescence, no detergent | AID 1476 | Potency, µM, for inactives: max response, negative = inhibition, usual class: inhibitors | 200,000 tested, 2.3% active;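 also: plate controls were enzyme without inhibitor for no effect and buffer without enzyme for full effect; nearly all actives have a fitted effect of over 40% in size; top concentration of the series not given in the record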
# Target sequence (P25779 123-467 limits assumed): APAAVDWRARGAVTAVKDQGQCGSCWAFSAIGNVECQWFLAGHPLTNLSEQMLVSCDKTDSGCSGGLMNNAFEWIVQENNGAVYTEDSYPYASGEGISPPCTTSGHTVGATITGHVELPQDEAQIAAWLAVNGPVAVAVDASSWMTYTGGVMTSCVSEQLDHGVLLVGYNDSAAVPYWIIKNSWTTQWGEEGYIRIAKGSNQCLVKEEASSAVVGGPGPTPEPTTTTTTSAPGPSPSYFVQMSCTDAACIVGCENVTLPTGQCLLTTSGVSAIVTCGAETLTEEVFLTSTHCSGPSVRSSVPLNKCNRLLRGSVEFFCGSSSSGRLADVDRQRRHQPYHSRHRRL
#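 Detergent-free condition (0.00005% Triton X-100) in acetate buffer pH 5.5 with DTT. 1.5 nM enzyme and compound were pre-mixed 15 min, then 2 uM Z-FR-AMC substrate added; reaction progress from fluorescence change between first and third reads (60 s).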
# 2A StopGo – lowers the luciferase signal of an FMDV 2A StopGo reporter; 410,000 tested, 1.2% active; human cells with a luciferase reporter of 2A StopGo recoding; control for the full effect not named in the record; Potency, µM (doses to about 57.9 µM), for inactives: at the top dose signal change, negative = less light; active = well fitted falling curve with a large enough effect; inconclusive = small, poorly fitted or top-dose-only effect; inactive = no such curve, though single readings can be large or run the other way; tested in HEK293T cells; also: % is scaled to controls: 0 for no effect and ±100 for the full control effect; nearly all actives have a fitted effect of over 45% in size; luciferase light after 4 h
# NS1 inh – influenza NS1 inhibition; 270,000 tested, 0.4% active; Potency, µM (series often up to 46.1 µM), without a hit: top-dose activity, positive = more growth; S. cerevisiae slowed by influenza A NS1, growth recovery by OD600; active means well fitted rising curve with a large enough effect; inconclusive means small, poorly fitted or top-dose-only effect; inactive means no such curve, though single readings can be large or run the other way; also: nearly all actives have a fitted effect of over 50% in size
#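 A cell-based growth assay was used: compounds that relieve NS1-induced slow growth of budding yeast raise OD600. Assay medium was yeast nitrogen base with ammonium sulphate and -URA supplement, pH 6.0, with 2% galactose.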
# SARS PLpro yeast – inhibitors of SARS-CoV papain-like protease in yeast; S. cerevisiae expressing SARS-CoV PLpro, growth rescue; control for the full effect not named in the record; Potency, µM (doses to about 32.9 µM), without a hit: top-dose activity, positive = growth rescue; 330,000 tested, 0.19% active; AID 485353; active means well fitted rising curve with a large enough effect; inconclusive means small, poorly fitted or top-dose-only effect; inactive means no such curve, though single readings can be large or run the other way; also: 0% is about no effect; nearly all actives have a fitted effect of over 55% in size; growth read by luminescence after 48 h
# LASV entry inh – inhibitors of Lassa virus binding or cell entry | Lassa virus pseudotype entry inhibition, cell reporter; control for the full effect not named in the record | Potency, µM (series often up to 37.9 µM), without a hit: at the highest dose activity change, negative = inhibition, actives largely listed as inhibitors | 300,000 tested, 1.2% active; active means well fitted inhibition curve with a large enough effect; inconclusive means small, poorly fitted or top-dose-only effect, or effect the other way; inactive means flat fitted curve, though single readings scatter; tested in HEK293 cells; also: % is scaled to controls: 0 for no effect and ±100 for the full control effect; nearly all actives have a fitted effect of over 50% in size; luciferase read-out
# Marburg entry inh – Marburg virus entry inhibition; Marburg virus pseudotyped entry inhibition, cell reporter; control for the full effect not named in the record; about a third of the inactives were read at about 46 µM; Potency, µM (titrated, usually from 37.8 µM), inactives show at the highest dose activity change, negative = inhibition, hits mostly inhibitors; 300,000 tested, 1.8% active; AID 540276; active = well fitted inhibition curve with a large enough effect; inconclusive = small, poorly fitted or top-dose-only effect, or effect the other way; inactive = flat fitted curve, though single readings scatter; tested in HEK293 cells; about a fifth of its hits are not listed in these tables; also: % is scaled to controls: 0 for no effect and ±100 for the full control effect; luciferase read-out
# Cruzain Triton – inhibitors of Trypanosoma cruzi cruzain with detergent; 200,000 tested, 0.43% active; Potency, µM, inactives show max response, negative = inhibition, actives largely listed as inhibitors; AID 1478; purified cruzain, Z-FR-AMC fluorescence, 0.01% Triton;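 also: plate controls were neutral wells for no effect and buffer without enzyme for full effect; nearly all actives have a fitted effect of over 40% in size; top concentration of the series not given in the record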
#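 Cruzain (1.5 nM) preincubated 15 min at RT with compound in 100 mM sodium acetate pH 5.5, 5 mM DTT, 0.01% Triton X-100. Reaction started with 2 uM Z-FR-AMC; AMC fluorescence (ex 360/em 450 nm) change over 60 s gave rate.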
# RE007 growth inh – less growth of the S. pombe RE007 Vpr strain | 360,000 tested, 0.21% active | Potency, µM (top dose mostly 92.2 µM), inactives show at the highest dose activity change, negative = less growth | S. pombe RE007 Vpr strain, BacTiter-Glo ATP luminescence, 24 h; control for the full effect not named in the record; active = well fitted falling curve with a large enough effect; inconclusive = small, poorly fitted or top-dose-only effect; inactive = no such curve, though single readings can be large or run the other way;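 also: % is scaled to controls: 0 for no effect and ±100 for the full control effect; nearly all actives have a fitted effect of over 50% in size; the assay follows cell death caused by Vpr and the record does not say whether a fall means rescue or toxicity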
#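 Fission yeast RE007 carrying one integrated HIV-1 vpr copy, seeded at OD 0.01 in PMG+AL medium with 23 nL pinned compound. Grown 24 h at 30 degrees; viability read by BacTiter-Glo luminescence after 5 min.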
# * marks the source's active call; other numbers are inactive results; ? = inconclusive; nt = not tested or not shown; & = joins results of further samples; [ ] = dose if it differs, or a comment. Unless noted, calls follow the shape of the dose curve; as a rule, active = well fitted curve in the direction sought with a large enough effect; inconclusive = small, poorly fitted or top-dose-only effect, or another doubt; inactive = no such curve, though single readings can be large; an effect the other way counts as inactive or inconclusive. Potency is read from the fitted curve at half-maximal effect.
SMILES,Cruzain noTriton,2A StopGo,NS1 inh,SARS PLpro yeast,LASV entry inh,Marburg entry inh,Cruzain Triton,RE007 growth inh
Cc1nc(NC(=O)/C=C/c2ccccc2)sc1C(=O)Nc1ccccc1,-19%,-15%,12%,0%,-3%,-16%,2.6%,-19%
Cc1cc(C)cc(NCc2cc(=O)oc3cc(-c4ccccc4)c(O)cc23)c1,?,-22%,1%,-21%,-6%,?,1.3%,nt
Cc1cccc(C(=O)Nc2ccc(-c3nc4ccccc4s3)cc2Cl)c1,?,20%,nt,nt,-1%[46.1 µM],nt,-1.6%,nt
CCCCC(=O)NC(=O)NC(c1ccccc1)c1ccccc1,nt,-6%,1%,0%,nt,nt,nt,6%
CC1CCC(C)(NS(=O)(=O)OCC(Cl)(Cl)Cl)CC1 (stereo not drawn),nt,8%,-44%,-7%,nt,nt,nt,11%
Cc1ccc2nc(-c3ccccc3NC(=O)CCC(=O)O)c(=O)[nH]c2c1,nt,-6%,-2%,-8%,2%,?,nt,4%
O=C1CCCC2=C1C1(O)C(=O)c3ccccc3C1(O)O2 (stereo not drawn),-14%,-19%,3%,-4%,-7%,nt,-0.8%,-3%
CCC1Oc2ccc(C)cc2N(CC(=O)N2CCOCC2)C1=O (stereo not drawn),nt,-10%,4%,-1%,8%[46.1 µM],15%[46.1 µM],nt,4%
CCN(CC)S(=O)(=O)c1cccc(C(=O)OCC(=O)NC(C)c2ccccc2)c1 (stereo not drawn),nt,-14%,nt,1%,-13%[46.1 µM],-1%,nt,-1%
Cc1ccc2[nH]c(=O)c(C(c3nnnn3C(C)(C)C)N3CCN(C(=O)c4ccco4)CC3)cc2c1 (stereo not drawn),25%,11%,7%,4%,1%,?,-7.3%,20%
CCn1c(SCC(=O)O)nc2ccccc21,nt,-3%,0%,-1%,14%,-1%[46.1 µM],nt,8%
CC(NC(=O)COC(=O)c1cc(NS(=O)(=O)c2ccc(Cl)c([N+](=O)[O-])c2)ccc1O)C1CC2CCC1C2 (stereo not drawn),6.3µM*,?,?,-7%,?,?,-10%,7%
CC(=O)Nc1ccccc1Sc1ccc2c3c(cccc13)C(=O)N(c1ccc(C)cc1)C2=O,-5%,-22%,5%,3%,4%,-8%,-2.0%,-20%
O=C(O)CCSc1nc2ccccc2n1CCOc1ccccc1,7%,nt,-8%,1%,-17%,1%,0.0%,-12%
Cc1ccc(NCc2nc(SCC(=O)Nc3ccccc3)n[nH]2)cc1,nt,19%,19%,?,-35%,8%,nt,12%
CCN(CC)c1ccc([N+](=O)[O-])cc1C(=O)N1CCOCC1,nt,-17%,2%,0%,3%[46.1 µM],1%[46.1 µM],nt,2%
Cc1nc2ccccc2n1CC(=O)OCC(=O)N1CCC(C)CC1,nt,?,nt,-10%,9%,1%,nt,-1%
NC(=O)C(CC(=O)O)NC(=O)[C@@H]1CCOc2c(I)cc([N+](=O)[O-])cc2C(=O)N[C@@H](CCC(=O)O)C(=O)N[C@@H](CO)C(=O)N1 (stereo partly drawn),0%,-7%,29%,12%,-2%,-3%,0.8%,0%
CCOCCCN1C(=O)CN(C2CCCCC2)C(=O)C1c1ccc(OCC)c(OC)c1 (stereo not drawn),-2%,1%,-2%,2%,2%,-1%,1.7%,-9%
O=C(c1ccccc1F)N1CCN(c2ccc([N+](=O)[O-])c(NCC3CCCO3)c2)CC1 (stereo not drawn),nt,0%,-5%,-1%,nt,nt,nt,5%

# One compound at a time, from the list above. Order of values: Cruzain noTriton | 2A StopGo | NS1 inh | SARS PLpro yeast | LASV entry inh | Marburg entry inh | Cruzain Triton | RE007 growth inh
# CCCCC(=O)NC(=O)NC(c1ccccc1)c1ccccc1 is listed as nt | -6% | 1% | 0% | nt | nt | nt | 6%
# O=C(O)CCSc1nc2ccccc2n1CCOc1ccccc1 is listed as 7% | nt | -8% | 1% | -17% | 1% | 0.0% | -12%
# Cc1cc(C)cc(NCc2cc(=O)oc3cc(-c4ccccc4)c(O)cc23)c1 is listed as ? | -22% | 1% | -21% | -6% | ? | 1.3% | nt
# CC1CCC(C)(NS(=O)(=O)OCC(Cl)(Cl)Cl)CC1 (stereo not drawn) is listed as nt | 8% | -44% | -7% | nt | nt | nt | 11%

# Next structures.
SMILES,Cruzain noTriton,2A StopGo,NS1 inh,SARS PLpro yeast,LASV entry inh,Marburg entry inh,Cruzain Triton,RE007 growth inh
COc1cccc(CN2CCc3[nH]c(=S)[nH]c(=O)c3C2)c1,nt,-15%,7%,2%,nt,nt,nt,0%
O=C(CC12CC3CC(CC(C3)C1)C2)NCCN1CCOCC1,6%,-6%,-3%,0%,12%,-2%,3.3%,-19%
COc1ccc(/C=C/C(=O)NCCOc2ccc(C)cc2)cc1,0%,-20%,-13%,-12%,-8%,8%,-10%,13%
COc1cc(C2NC(=S)NC(c3ccccc3)=C2C(C)=O)ccc1O (stereo not drawn),nt,-12%,6%,7%,0%,-5%,nt,2%
Cc1ccc(-c2nnc(SCC(C)C)n2C)cc1,4%,4%,-18%,-1%,?,12%,1.9%,-14%
CC(=O)c1cccc(NC(=O)C(C)OC(=O)c2cc(C)oc2C)c1 (stereo not drawn),nt,-24%,nt,-14%,1%,?,nt,8%
CC(=O)NC(Cc1ccc(F)cc1)C(=O)NC1CCN(C(=O)NCc2ccccc2)CC1 (stereo not drawn),nt,-1%,1%,1%,-3%[46.1 µM],?,nt,-9%
CCN(CC)C(=S)NCCc1ccccc1,nt,32%[activator],-8%,-1%,8%[46.1 µM],2%[46.1 µM],nt,1%
C[C@@H](CN1C2=NC[C@H](C)N2C[C@H]1Cc1ccc(O)cc1)NC(=O)CCC1CCCCC1,nt,4%,-2%,1%,nt,nt,nt,-10%
Cc1ccc(CNC(=O)C2CC(c3ccccc3[N+](=O)[O-])=NO2)o1 (stereo not drawn),-1%,28%,3%,-1%,nt,nt,-1.3%,-3%
Cc1cccc(C)c1NC(=O)Cn1nnc(C(=O)Nc2c(C)cccc2C)c1N,-7%,0%,nt,nt,9%[46.1 µM],18%[46.1 µM],0.7%,nt
CCN(CC)C(=O)N1CCN(C(=O)N2CCOCC2)CC1,nt,-15%,3%,1%,?,-17%[46.1 µM],nt,-18%
Cc1ccc(S(=O)(=O)NC(CC(C)C)C(=O)N2CCCCCCC2)cc1 (stereo not drawn),nt,-15%,nt,-2%,-28%,?,nt,12%
COc1ccccc1N(CC(=O)Nc1ccc(Br)cc1F)S(=O)(=O)c1cccs1,nt,-13%,nt,3%,?,?,nt,-8%
CCCCN(C(=O)C1CCCO1)c1c(N)n(CC(C)C)c(=O)[nH]c1=O (stereo not drawn),nt,-22%,nt,-1%,-15%,-12%,nt,-12%
Cc1ccc(CNC(=O)CCC2CCCN(C(=O)c3ccc4c(c3)OCO4)C2)o1 (stereo not drawn),nt,29%,1%,1%,-5%,-4%[46.1 µM],nt,2%
COc1ccccc1N1C(=O)N(C(C)=O)C2C1Nc1ccccc1N2C (stereo not drawn),17%,nt,?,0%,?,12µM*,3.2%,?
Cc1cccc(N2CCN(C(=O)CN3C(=O)COc4ccc(S(=O)(=O)N5CCCCCC5)cc43)CC2)c1C,8%,-22%,nt,nt,6%[46.1 µM],1%[46.1 µM],-3.6%,nt
Cc1ccc(CNC(=S)NC2CCCCC2)cc1,nt,4%,-58%,10%,nt,nt,nt,-11%
O=S(=O)(O)c1nc2ccccc2n1Cc1ccc(Cl)cc1,1%,-5%,-2%,-2%,12%,0%,-7.3%,14%

# A few values from the results shown.
# For RE007 growth inh, C[C@@H](CN1C2=NC[C@H](C)N2C[C@H]1Cc1ccc(O)cc1)NC(=O)CCC1CCCCC1 is listed with -10%
# For NS1 inh, CCN(CC)C(=S)NCCc1ccccc1 is listed with -8%
# For LASV entry inh, CC(=O)NC(Cc1ccc(F)cc1)C(=O)NC1CCN(C(=O)NCc2ccccc2)CC1 (stereo not drawn) is listed with -3%[46.1 µM]
# For SARS PLpro yeast, Cc1ccc(-c2nnc(SCC(C)C)n2C)cc1 is listed with -1%

# Next part.
SMILES,Cruzain noTriton,2A StopGo,NS1 inh,SARS PLpro yeast,LASV entry inh,Marburg entry inh,Cruzain Triton,RE007 growth inh
CSc1ccccc1OCc1cc(C(=O)N(C)C(C)c2ccccn2)no1 (stereo not drawn),nt,35%[activator],-4%,6%,?,-7%,nt,-7%
O=C(NNC(=O)C12CC3CC(CC(C3)C1)C2)c1ccccc1O,nt,10%,nt,?,1%,6%,nt,18%
Cc1ccc(S(=O)(=O)Nc2ccc(N3CCOCC3)cc2)cc1C,nt,3%,-10%,-1%,-22%,8%[46.1 µM],nt,-9%
O=C(Nc1cccc(-c2nc3ccccc3o2)c1)c1cc([N+](=O)[O-])ccc1N1CCOCC1,?,-13%,nt,nt,-5%[46.1 µM],9%[46.1 µM],-3.7%,nt
O=C(Nc1cccc(S(=O)(=O)Nc2ccccc2F)c1)c1ccc2ccccc2n1,nt,-13%,nt,0%,?,?,nt,-21%
Cc1ccc(OCc2nnc(SCC(=O)Nc3ccc4c(c3)OCO4)n2C)cc1,-12%,23%,-10%,-4%,-1%,2%&2%,-0.9%,17%
CC1(C)CC(=O)c2c(oc3cc(O)c(O)cc23)C1,-27%&2%,2%,-8%,-3%,-13%,?,?,-4%
O=C(NCc1ccccc1)C1CCC(CNc2c(N3CCCCC3)c(=O)c2=O)CC1 (stereo not drawn),-1%,-7%,-12%,-9%,-2%,24%,-1.3%,-5%
